# Screens as filed in PubChem BioAssay.
# SARS PLP yeast = qHTS of Yeast-based Assay for SARS-CoV PLP | Potency, µM (highest dose often 32.9 µM), for inactives: at the top dose activity, positive = growth rescue | S. cerevisiae expressing SARS-CoV PLpro, growth rescue; control for the full effect not named in the record | hit rate 0.19% among 330,000 | AID 485353, 2010; active means well fitted rising curve with a large enough effect; inconclusive means small, poorly fitted or top-dose-only effect; inactive means no such curve, though single readings can be large or run the other way; further: 0% is about no effect; nearly all actives have a fitted effect of over 55% in size; growth read by luminescence after 48 h
# RE007 growth inh = qHTS Assay for Inhibitors of the HIV-1 protein Vpr | Potency, µM (doses to about 92.2 µM), for the others: top-dose activity change, negative = less growth | hit rate 0.21% among 360,000 | S. pombe RE007 Vpr strain, BacTiter-Glo ATP luminescence, 24 h; control for the full effect not named in the record; active = well fitted falling curve with a large enough effect; inconclusive = small, poorly fitted or top-dose-only effect; inactive = no such curve, though single readings can be large or run the other way;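 further: on the % scale 0 is the no-effect control and ±100 the full control effect; nearly all actives have a fitted effect of over 50% in size; the assay follows cell death caused by Vpr and the record does not say whether a fall means rescue or toxicity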
#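 Fission yeast RE007 carrying one integrated HIV-1 vpr copy, seeded at OD 0.01 in PMG+AL medium with 23 nL pinned compound. Grown 24 h at 30 degrees; viability read by BacTiter-Glo luminescence after 5 min.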
# StopGo reporter = High Throughput Screening for Foot and Mouth Disease Virus Antivirals; Potency, µM (top dose mostly 57.9 µM), for inactives: at the top dose signal change, negative = less light; AID 1159524, 2015; hit rate 1.2% among 410,000; human cells with a luciferase reporter of 2A StopGo recoding; control for the full effect not named in the record; active = well fitted falling curve with a large enough effect; inconclusive = small, poorly fitted or top-dose-only effect; inactive = no such curve, though single readings can be large or run the other way; tested in HEK293T cells; further: on the % scale 0 is the no-effect control and ±100 the full control effect; nearly all actives have a fitted effect of over 45% in size; luciferase light after 4 h
# Starred values were filed as active, the others as inactive; ? = inconclusive; & = joins results of further samples; [ ] = dose if it differs, or a comment. Potency means the concentration at half of the fitted maximal effect. The list is partial; rates above refer to the full screens.
SMILES,SARS PLP yeast,RE007 growth inh,StopGo reporter
C[C@H]1CN([C@@H](C)CO)C(=O)c2cc(NC(=O)Cc3ccccc3)ccc2O[C@H]1CN(C)Cc1ccccc1,2%,2%,-14%
CC(C)Cn1c(-c2cccc(S(=O)(=O)N3CCOCC3)c2)n[nH]c1=S,-1%,8%,-8%
CCC1Nc2ncnc(N3CCN(c4ccccn4)CC3)c2N(Cc2ccc(Br)cc2)C1=O (stereo not drawn),1%,-4%,-11%
O=C(/C=C/c1cc(Br)ccc1F)OCC(=O)N1CCOCC1,-1%,-5%,-16%
COc1ccc(C(=O)NCc2nnc(SCC(=O)Nc3ccccc3F)o2)cc1,2%,-3%,5%
CCc1cc(C(=O)N2CCN(S(=O)(=O)c3cc(C)ccc3C)CC2)sc1C,-8%,-13%,0%
CCCCOc1ccc(C(=O)NCC(=O)NCC(c2cccs2)N2CCOCC2)cc1 (stereo not drawn),-5%,7%,1%
CCN(C[C@H]1N[C@@](C)(C(=O)OC)[C@H]2C(=O)N(C)C(=O)[C@@H]12)C(=O)c1ccc(C)cc1,0%,0%,-8%
COc1ccc(CC(=O)NCc2n[nH]c(=S)n2-c2cccc(Cl)c2)cc1,0%,-18%,-2%
COc1ccc(-c2ccc(SCC(=O)Nc3nnc(C)s3)nn2)cc1,-2%,-8%,34%[activator]
CC(C)[C@H](CN1CCC[C@H]1CN1C(N)=NC[C@@H]1Cc1ccccc1)N1C[C@@H](Cc2ccccc2)N(CCc2ccc(Cl)c(Cl)c2)C1=N,-5%,0%,-12%
C=CC[C@@H](CC(=O)N(CCO)Cc1ccccc1)C(=O)N[C@H](COC(=O)[C@@H](CC=C)CC(=O)OC(C)(C)C)c1ccccc1,-1%,1%,-26%
O=[N+]([O-])c1cnn2cc(Br)cnc12,-6%,-15%,-20%
CC(=O)c1ccc(S(=O)(=O)N2CCN(C(=O)c3ccc(-n4cncn4)c([N+](=O)[O-])c3)CC2)cc1,-1%,2%,-28%
COC(=O)CNC(=O)CN(c1ccc(OC)cc1OC)S(=O)(=O)c1ccccc1,-2%,6%,-24%
CCOC(=O)C1=C(COC(=O)CCC(=O)c2ccc(C)cc2)NC(=O)NC1C (stereo not drawn),-2%,-10%,-7%
CN[C@H](C)C(=O)NC[C@H]1O[C@@H](n2cnc3c(N)ncnc32)[C@H](O)[C@@H]1O,22%,7%,-3%
COc1ccc(Cl)cc1NC(=O)COc1ccc2c(c1)OCO2,1%,5%,9%
CCN(C[C@H]1N[C@@](CC)(C(=O)OC)[C@H]2C(=O)N(C)C(=O)[C@@H]12)C(=O)Nc1ccc(C(F)(F)F)cc1,2%,0%,-20%
Oc1ccc(Cl)cc1CNCc1ccc(C(F)(F)F)cc1,6%,1%,-14%
COc1ccc(CN2C(=O)C(Cc3ccccc3)Nc3ncnc(N4CCOCC4)c32)cc1 (stereo not drawn),-1%,10%&-4%,-20%&-29%
CCCNC(=O)C(Cc1cccc(OC)c1)NC(=O)c1ccc(C(C)(C)C)cc1 (stereo not drawn),0%,5%,9%
Cc1nn(-c2ccccc2)c(C)c1C(=O)OCC(=O)Nc1cccc(S(N)(=O)=O)c1,12%,0%,-8%
COc1cc(OC)cc(C(=O)NNC(=O)c2cc(S(=O)(=O)N3CCOCC3)ccc2F)c1,2%,7%,?
O=C1N[C@H](Cc2ccccc2)COC(=O)[C@@H](Cc2ccc(F)cc2)C/C=C\C[C@H]1CC(=O)N(CCO)Cc1ccccc1,-7%,4%,0%
# Other compounds follow:
SMILES,SARS PLP yeast,RE007 growth inh,StopGo reporter
CN(Cc1ccccc1)C(=O)c1cccc(NC(=O)Cc2cccc([N+](=O)[O-])c2)c1,4%,-14%,?
CCCNC(=O)CNC(=O)c1ccc(C#N)cc1,1%,8%,-17%
COCCN(CC(=O)Nc1cccc(C)c1C)C(=O)C1(c2ccc(Cl)cc2)CCC1,-6%,-5%,-14%
CCCSc1ccc([C@@H]2[C@H]3C(=O)N(CC)C(=O)[C@H]3[C@]3(C(=O)OC)CCCCN23)cc1OC,-3%,2%,?
CC(C)N(C(=O)[C@H]1C[C@H](CC(=O)NCc2cccc(C(F)(F)F)c2)C(=O)N2CCc3c([nH]c4cc(CCC(=O)N(C)C)ccc34)[C@]12C)C(C)C,?,-6%,?
COc1ccc(NC(=O)COc2ccc(C(=O)NCc3cccnc3)cc2OC)cc1,-2%,8%,-18%
CC(=O)Nc1sc(C)c(C)c1C(=O)OCC(=O)NCc1ccc(Cl)cc1,-8%,-2%,-7%
CCCCC/C=C/C1=CC(=O)C[C@H](c2ccc(OC)c(OC)c2)C1,-16%,-7%,?
OC(c1ccccc1)(c1ccccc1)c1ncc[nH]1,1%,3%,-10%
O=C(C[C@H]1C[C@H](C(=O)N2CCOCC2)[C@@]2(CCC3CCCC3)c3[nH]c4ccc(Cl)cc4c3CCN2C1=O)NCC12CC3CC(CC(C3)C1)C2,-2%,2%,-14%
O=C(NN=Cc1ccccc1C(=O)O)c1cccc(S(=O)(=O)Nc2cccc(C(F)(F)F)c2)c1,4%,-3%,0%
Cc1cccc(OCc2nnc(-c3ccc(F)cc3)o2)c1,5%,-19%,43%[activator]
Cc1cccc(NC(=O)COC(=O)c2ccc(C)c(S(=O)(=O)N3CCCCC3)c2)c1,0%,-7%,6%
COc1cc(OC)cc(C(=O)NC(C(=O)NNC(=O)c2ccc(C)cc2)C(C)C)c1 (stereo not drawn),-7%,0%,18%
O=C(NCc1ccccn1)c1cccc(NS(=O)(=O)c2ccc(Br)cc2)c1,12%,-2%,9%
O=C(Nc1cc(S(=O)(=O)N2CCOCC2)ccc1Cl)c1cc(=O)c2ccccc2o1,-1%,-1%,-11%
C[C@@H]1CC[C@]2(C(=O)O)CC[C@]3(C)C(=CCC4[C@@]5(C)CC[C@H](O)[C@@](C)(C(=O)O)C5CC[C@]43C)C2[C@]1(C)O (stereo partly drawn),-3%,0%,3%
COc1ccc([C@H]2CC(=O)C=C(c3cccc(OC)c3)C2)cc1,3%,-5%,3%
O=C1OC[C@@H]2CCCN2C(=O)[C@H](CC(=O)N(CCO)Cc2ccccc2)C/C=C\C[C@H]1Cc1ccc(F)cc1,13%,-8%,16%
O=C(NNC(=O)c1cccnc1)NC1CCCCC1,0%,-3%,0%
CCCCNC(=O)CCN1N=C(c2ccccc2)CCC1=O,1%,0%,-6%
CC(C)c1ccc(S(=O)(=O)N2CCN(CC(=O)Nc3ccc(Cl)cc3F)CC2)cc1,-3%,-2%,-23%
Cc1cc(NC(=O)CCCn2nc([N+](=O)[O-])c(Br)c2C)no1,-1%,-5%,-15%
Cc1ccc(CN(C)C(=O)COC(=O)CSc2ccc(C(N)=O)cc2[N+](=O)[O-])cc1,1%,-2%,2%
COc1ccccc1Nc1c([N+](=O)[O-])cc(C)cc1[N+](=O)[O-],1%,-18%,-16%
# (listing goes on)
SMILES,SARS PLP yeast,RE007 growth inh,StopGo reporter
COc1ccc(CNC(=O)C2CCN(C(=O)c3ccc(F)cc3)CC2)cc1OC,3%,-6%,-22%
COc1cc(C=NNC(=O)Cn2nc(C)cc2C)ccc1OC(=O)C1CC1,-1%,3%,-4%
COc1ccc(N2CC(C(=O)Nc3ccc(S(=O)(=O)Nc4nccs4)cc3)CC2=O)c(OC)c1 (stereo not drawn),-4%,-20%,1%
O=C(COC(=O)Cc1cccc(C(F)(F)F)c1)NCc1ccco1,-1%,2%,-18%
COc1ccc2c3n([n+]([O-])c2c1)CCN=C3c1cc(Cl)c(N)c(Cl)c1,-8%,-9%,-7%
C/C(CCC(C)C)=N\NC(=S)NCc1ccccc1,1%,4%,13%
COc1ccc(CN(CC(O)COCc2ccccc2)S(=O)(=O)c2ccccc2Br)cc1OC (stereo not drawn),22%,21%[18.4 µM],-8%
O=C(/C=C/c1ccco1)Nc1nc(-c2ccccn2)cs1,?,3%,67%[activator]
CN(C)S(=O)(=O)c1ccc2oc(SCC(=O)c3c(N)n(C4CC4)c(=O)[nH]c3=O)nc2c1,0%,-6%,?
COc1cccc(/C=N/Nc2ccc(C(=O)O)cc2)c1O,-11%,?,3.5µM*
O=C(NCC(=O)N1CCN(S(=O)(=O)c2ccc3c(c2)OCCO3)CC1)c1ccccc1F,-1%,3%,-20%
Cc1ccc(C2CC(=O)NC(SCC(N)=O)=C2C#N)s1 (stereo not drawn),-6%,-2%,-16%
Cc1c(C(=O)OCC(=O)Nc2ccc(C(N)=O)cc2)cccc1[N+](=O)[O-],4%,13%,?
O=C1[C@@H](Oc2ccccc2)[C@@H](c2cnc3ccccc3c2)N1c1ccccc1,-34%,14%,-25%
O=C(C(=O)N1CCN(C(=O)c2ccco2)CC1)c1c[nH]c2ccccc12,-1%,-16%,13%
CCCCCCCCCCCCCCCCn1cc[n+](CC(C)=O)c1,1%,32µM*,?
O=C(CSc1ncn[nH]1)N1N=C(c2ccc(Cl)cc2)CC1c1ccco1 (stereo not drawn),-4%,-7%,-17%
CC1=C(C(=O)O)N2C(=O)C(NC(=O)c3ccc(F)cc3)C2SC1 (stereo not drawn),2%,0%,0%
CC(C)NC(=O)CSc1nnc(-c2ccc(F)cc2)c2ccccc12,-2%,20%,-37%
Cc1ccc(C(=O)OCC(=O)NCCc2ccccc2)cc1C,-3%,-8%,-11%
Cn1c(N)c(C(=O)COC(=O)c2cccc(S(=O)(=O)NCc3ccccc3)c2)c(=O)n(C)c1=O,-1%,-8%,22%
O=C(CN1C(=O)NC2(CCCC2)C1=O)OCc1ccccc1,1%,-6%,-2%
CCOc1ncccc1C(=O)OCc1csc(CC(=O)Nc2ccccc2C)n1,-7%,2%,-10%
Oc1cccnc1SCc1ccccc1,-4%,-7%,-11%
CC1(C)CC(=O)C(CO)=C(c2cccc3ccccc23)C1=O,-25%,4%,-9%
# (listing goes on)
SMILES,SARS PLP yeast,RE007 growth inh,StopGo reporter
C[C@@]12CC[C@H]3OC(=O)C=C3C1CC[C@@]13CC(CCC12)[C@](CO)(O[C@H]1O[C@H](CO)[C@@H](O)[C@H](O)[C@H]1O)C3 (stereo partly drawn),-7%,3%,-22%
Cc1ccc(NC(=O)CN(C)CC(=O)N(CC(C)C)c2c(N)n(CC(C)C)c(=O)[nH]c2=O)c(C)c1,2%,8%,-3%
CC(C)CCC[C@@H](C)[C@H]1CC[C@H]2[C@@H]3C(=O)C=C4C[C@@H](O)CC[C@]4(C)[C@H]3CC[C@]12C,-9%,-3%,0%
Cc1ccc(S(=O)(=O)Nc2ccccc2F)cc1C(=O)NCc1ccco1,2%,-2%,52%[activator]
C=CC[C@H](CC(=O)N(CCO)Cc1ccccc1)C(=O)N[C@H](COC(=O)[C@@H](CC=C)CC(=O)OC(C)(C)C)Cc1c[nH]c2ccccc12,5%,7%,-34%
CC(=O)OCC(=O)Nc1c(C)cccc1C,0%,2%,-15%
Nc1ccc(C(=O)N/N=C\C=C\c2cccc([N+](=O)[O-])c2)cc1,-1%,-12%,-6%
Cc1ccccc1NC(=O)CS(=O)(=O)c1cn(CC(=O)N2CCOCC2)c2ccccc12,0%,12%,-7%
CN(C)c1cccc(C(=O)Nc2ccc(S(=O)(=O)Nc3nccs3)cc2)c1,6%,-1%,57%[activator]
O=C(Nc1ccc(C(=O)NN2C(=O)c3ccccc3C2=O)cc1)c1ccccc1,-1%,-3%,1%
CC(NCC(=O)Nc1cc(S(=O)(=O)N2CCOCC2)ccc1N1CCOCC1)c1ccco1 (stereo not drawn),-1%,-6%,-11%
CCOC(=O)N1CCC(Nc2c(NCCCN3CCN(C4CCCCC4)CC3)c(=O)c2=O)CC1,-4%,-1%,6%
COc1ccc(-c2ccc(-c3nc4ccc(C)cn4c3NC3CCCCC3)cc2OC)cc1,-2%,?,?
COc1ccc(S(=O)(=O)N(C)C[C@@H]2Oc3c(NS(C)(=O)=O)cccc3C(=O)N([C@@H](C)CO)C[C@H]2C)cc1,?,5%,-10%
CCC(C)Sc1ccc([C@@H]2[C@@H]3C(=O)N(CC)C(=O)[C@@H]3[C@]3(C(=O)OC)CCCCN23)cc1 (stereo partly drawn),2%,-12%,?

# Three successive compounds out of the list so far, quoted:
SMILES,SARS PLP yeast,RE007 growth inh,StopGo reporter
COc1ccc(-c2ccc(-c3nc4ccc(C)cn4c3NC3CCCCC3)cc2OC)cc1,-2%,?,?
COc1ccc(S(=O)(=O)N(C)C[C@@H]2Oc3c(NS(C)(=O)=O)cccc3C(=O)N([C@@H](C)CO)C[C@H]2C)cc1,?,5%,-10%
CCC(C)Sc1ccc([C@@H]2[C@@H]3C(=O)N(CC)C(=O)[C@@H]3[C@]3(C(=O)OC)CCCCN23)cc1 (stereo partly drawn),2%,-12%,?
